Screens as filed in PubChem.
Rango release inh = inhibitors of RanGTP-induced Rango-importin beta complex dissociation; Potency, µM (doses to about 46.1 µM), for inactives: at the top dose activity change, negative = inhibition; Biochemical FRET Rango-importin beta, RanGTP-induced dissociation; O95149+P62826; 340,000 tested, 0.071% active; active means falling FRET ratio curve, often poorly fitted, with flat reads before Ran was added; inconclusive means other falling curves, or compound fluorescence or quenching; inactive means flat or rising ratio curve;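 further: potency means the concentration at half of the fitted maximal effect; % of control where 0% means no effect; nearly all actives have a fitted effect of over 45% in size; -100% = wells without RanGTP and RCC1; the record marks most hits as doubtful in a second field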
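Compounds preincubate 5 min with complex of recombinant Rango and importin beta in PBS with 1 mM DTT. Ran (0.6 uM) loaded with 2 mM GTP plus 0.2 uM RCC1 starts dissociation; FRET is recorded 45 min later.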
GLA inh pH 4.5 = inhibitors of human alpha-galactosidase A at pH 4.5; P06280; purified enzyme, 4-MU-alpha-Gal fluorescence, pH 4.5; activity change, negative = inhibition, % at 105 µM; 230,000 tested, under 10 active; inconclusive = small, poorly fitted or top-dose-only inhibition, or a rising curve; inactive = flat fitted curve, though single readings scatter; no compound was filed as active;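 further: 0% = full activity with enzyme and -100% = basal without enzyme; dose as in the result columns while the protocol names 77 µM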
Rango complex inh = Rango-importin beta binding inhibition; Q14974; Rango CFP/YFP FRET sensor + importin beta, 45 min; Potency, µM (series often up to 92.2 µM), inactives show at the highest dose inhibition of complex formation; 340,000 tested, 0.031% active; active = rising FRET ratio curve, often small or poorly fitted; inconclusive = mostly compound fluorescence or quenching in the first reads; inactive = flat curves in all reads;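 further: potency means the concentration at half of the fitted maximal effect; 0% = DMSO wells and 100% = buffer wells lacking importin beta; nearly all actives have a fitted effect of over 15% in size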
Target sequence (Q14974 whole entry, looked up): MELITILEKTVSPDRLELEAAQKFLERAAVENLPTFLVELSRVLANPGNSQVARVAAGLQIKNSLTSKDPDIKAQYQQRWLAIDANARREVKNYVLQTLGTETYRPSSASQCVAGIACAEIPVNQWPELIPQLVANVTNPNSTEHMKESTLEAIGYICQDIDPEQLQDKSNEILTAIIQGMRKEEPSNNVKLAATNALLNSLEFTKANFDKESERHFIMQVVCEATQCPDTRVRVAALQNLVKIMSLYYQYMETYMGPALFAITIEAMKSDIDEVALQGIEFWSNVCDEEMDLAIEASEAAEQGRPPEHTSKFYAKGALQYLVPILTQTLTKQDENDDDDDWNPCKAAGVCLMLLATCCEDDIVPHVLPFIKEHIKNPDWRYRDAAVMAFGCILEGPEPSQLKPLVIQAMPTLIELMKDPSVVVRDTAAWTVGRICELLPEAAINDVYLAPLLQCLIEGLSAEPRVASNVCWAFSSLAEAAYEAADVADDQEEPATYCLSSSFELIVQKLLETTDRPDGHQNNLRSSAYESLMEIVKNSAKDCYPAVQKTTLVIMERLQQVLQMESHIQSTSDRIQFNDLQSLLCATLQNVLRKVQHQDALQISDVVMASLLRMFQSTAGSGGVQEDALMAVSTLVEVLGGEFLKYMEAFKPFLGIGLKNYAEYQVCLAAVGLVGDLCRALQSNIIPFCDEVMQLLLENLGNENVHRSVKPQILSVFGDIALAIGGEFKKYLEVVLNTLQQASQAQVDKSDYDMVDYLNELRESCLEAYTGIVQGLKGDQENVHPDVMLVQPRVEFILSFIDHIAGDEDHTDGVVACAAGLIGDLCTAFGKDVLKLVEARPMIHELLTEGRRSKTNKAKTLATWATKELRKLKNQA
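FRET biosensor (snurportin 1 IBB flanked by EYFP and cerulean), 50 nM, with compound 5 min, then 0.125 microM importin beta in PBS, 1 mM DTT, 0.02% Tween-20, 0.1% BSA. CFP/YFP ratio read after 45 min at room temperature; pre-read flags interference.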
miR-21 FLuc = miR-21 reporter, rising signal; AID 2288; 340,000 tested, under 10 active; Potency, µM (series often up to 38.3 µM), inactives show top-dose reporter change, positive = more light; HeLa miR-21 FLuc reporter, luciferase, 48 h; active = well fitted rising curve with a large enough effect; inconclusive = small, poorly fitted or top-dose-only effect; inactive = no such curve, though single readings can be large or run the other way;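 further: % of control where 0% means no effect; miR-21 action dims this reporter so a rising signal means less miR-21 action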
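Compounds were titrated across several concentrations (up to approximately 40 uM) and incubated 48 hours with HeLa miR-21-FLuc reporter cells (miR-21 target sequence downstream of FLuc, endogenous miR-21). Readout was firefly luciferase luminescence after lytic detection reagent.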
* marks the source's active call; other numbers are inactive results; ? = inconclusive; . = not tested or not shown; & = joins results of further samples. A portion of the library, so the mix of outcomes need not match the whole.

Rango release inh,GLA inh pH 4.5,Rango complex inh,miR-21 FLuc,SMILES
3%,3,1.4%,-1%,CCCCN(C)CCCNC(=O)c1cccc(N2CCCC2=O)c1
1%,-1,5.5%,0%,CCNS(=O)(=O)c1c(C)cc(N2CCCC2=O)cc1C
-4%,.,7.4%,0%,CC1Nc2ccc(C(=O)NC3CCCCC3)cc2NC1=O (stereo not given)
4%,.,1.3%,-31%,O=C(NC1CC1)C1CCN(c2nc3ccccc3s2)CC1
11%,2,3.5%,7%,COc1ccc(C2/C=C\CN(C(=O)c3ccccc3)[C@H](Cc3ccccc3)C(=O)N2Cc2ccc(F)cc2)cc1 (stereo not given in full)
-24%,1,?,4%,COc1ccc(O)c(/C=N/NC(=S)Nc2cccnc2)c1
27%,-4,1.6%,-19%,Cc1nnc(SCCn2c(N3CCN(Cc4ccccc4)CC3)nc3c2c(=O)[nH]c(=O)n3C)s1
-2%,.,0.1%,.,Cc1ccc2c(c1)C1C=CCC1C(C(=O)NCCCN1CCOCC1)N2 (stereo not given)
1%,.,0.5%,.,O=Cc1cccc(OC(=O)Nc2ccccc2)c1
10%,.,3.0%,.,c1nc(N2CCOCC2)c2[nH]cnc2n1
16%,.,-4.1%,0%,CCN(CC)CCN1C(=O)C2C(C(=O)Nc3cccc(SC)c3)C3C=CC2(O3)C1C(=O)NC1CCCC(C)C1C (stereo not given)
0%,.,-3.1%,1%,O=C(NCCCn1ccnc1)C1CCCN(S(=O)(=O)c2ccc(F)cc2)C1 (stereo not given)
-14%,.,1.8%,5%&6%,COc1ccc(Br)cc1CNC(=O)CCC(=O)N1CCSc2ccccc21
-9%,.,4.2%,-26%,CCOc1ccc(N(CC(=O)Nc2ccc(C)c(Cl)c2)S(C)(=O)=O)cc1
3%,5,4.0%,2%,CC(C)(C)C(=O)Nc1nc2c(c(=O)[nH]1)CCCC2
-5%,-2,0.0%,-7%,O=C(N/N=C/c1ccc(OCC2COCCO2)cc1)c1ccc(Br)cc1 (stereo not given)
-16%,-1,0.6%,-3%,COc1cc(C2C=C(C34CC5CC(CC(C5)C3)C4)NC(=S)N2)cc(OC)c1OC (stereo not given)
-20%,3,-1.0%,-2%,CC1(C)NC(=O)N(CC(O)COc2ccccc2-c2ccccc2)C1=O (stereo not given)
-7%,2,3.4%,-9%,COc1cccc(C(Nc2ccccn2)c2oc(CO)cc(=O)c2O)c1 (stereo not given)
11%,4,0.5%,1%,CCOC(=O)CNC(=O)CSc1nnc(COc2ccc(Cl)cc2)n1CC
?,?,?,.,OC[C@@H]1[C@@H](c2ccc(F)cc2)C(c2ccccc2)=NN1c1ccccc1
-12%,2,-0.1%,1%,O=C(COC(=O)C1CCCN1C(=O)C12CC3CC(CC(C3)C1)C2)c1ccc(Br)cc1 (stereo not given)
3%,-4,-3.0%,-9%,CSc1cccc(CN2CCCC(CNC(=O)c3ccc(F)cc3)C2)c1 (stereo not given)
-7%,-2,3.8%,-5%,Cc1ccc(NC(=O)Cc2n[nH]c(=S)n2C)cc1
-2%,.,0.4%,-1%,O=C(c1ccc(Cl)c(NC2=NC3CS(=O)(=O)CC3S2)c1)N1CCN(c2ccc(F)cc2)CC1 (stereo not given)
37%,-1,-2.2%,-1%,CCC(C)n1c(=S)[nH]c2c(sc3ccc([N+](=O)[O-])cc32)c1=O (stereo not given)
-1%,.,-1.8%,0%,O=C(NC1CCCN(c2ccc(C(F)(F)F)cn2)C1)c1ccncc1 (stereo not given)
1%,.,-1.6%,-5%,Cn1c(COc2ccccc2)nnc1SCC(=O)NC1CCCC1
2%,0,-4.3%,-6%,Cc1ccccc1NC(=S)N1CCOCC1
0%,-19,1.6%,-7%,O=C(O)CSc1ncnc2c1sc1nc(-c3ccccc3)c3c(c12)CCC3
-7%,1,-2.6%,-4%,O=C(Nc1cc(C(F)(F)F)ccc1N1CCCCC1)c1ccco1
-6%,7,-0.2%,-4%,Cc1cc(C)cc(-n2c(N)c(C(=O)Nc3c(C)n(C)n(-c4ccccc4)c3=O)c3nc4ccccc4nc32)c1
.,-9,.,2%,COCC(C)n1c(C)cc(C(=O)COC(=O)C2=NN(c3ccccc3)C(=O)CC2)c1C (stereo not given)
.,5,.,-5%,CC1(C)Cc2c(sc3c4nnnn4c4nnnn4c23)CO1
0%,.,3.3%,.,CN(C)c1ccc(C=NN2CCCCCC2)cc1
1%,.,0.8%,2%,Cn1c(=O)n(C)c2cc(NC(=O)COc3ccccc3)ccc21
18%,1,2.9%,0%,COc1cc(-c2nc(S(=O)(=O)c3ccc(C)cc3)c(N3CCOCC3)o2)cc(OC)c1OC
?,3,?,-8%,O=C(c1ccco1)c1cc2c(ccc3ccccc32)oc1=O
0%,-3,-0.1%,1%,Cc1ccc(-n2nnnc2-c2ccccc2)cc1
10%,.,2.2%,.,CC/C(=N/N=C(/CC)c1ccc(O)cc1)c1ccc(O)cc1
?,-3&4,0.1%&-0.8%,-1%&1%,CC1CC(C)(C)NC(=S)O1 (stereo not given)
-1%,9,3.2%,0%,NC(=O)CC(NC(=O)Cc1ccc(Br)cc1)c1ccc(N2CCN(c3ccccc3)CC2)c([N+](=O)[O-])c1 (stereo not given)
-12%,-3,-0.3%,0%,COc1ccc(CC(=O)N2CCOCC2)cc1
14%,.,?,.,C/C=C/c1ccc(OCC(=O)OCC2=C(C(=O)OCC)C(C)NC(=O)N2)c(OC)c1 (stereo not given)
-15%,.,0.1%,.,COc1ccc(CN2CCC3CC2c2cc(-c4cccc(C)c4)ccc23)cc1 (stereo not given)
30%,.,-2.6%,-1%,COc1ccc(NC(=O)CN2C(=O)COc3ccc(S(=O)(=O)N4CCOCC4)cc32)c(OC)c1
?,.,?,.,Cn1cncc1C#Cc1c(C=O)n(C)c2ccccc12
-12%,0,-2.5%,4%,COc1cc(NC(=O)COC(=O)CNC(=O)c2cc(C)cc(C)c2)c(C)cc1[N+](=O)[O-]
10%,.,1.8%,-2%,COCCNC(=O)CCN1N=C(c2ccccc2)CCC1=O
-1%,.,0.3%,.,O=C(NNC(=O)c1ccc(Cl)c(S(=O)(=O)Nc2ccc(Cl)cc2)c1)c1ccc(=O)[nH]c1

Part of the list above in order of formula weight, lowest first.
Rango release inh,GLA inh pH 4.5,Rango complex inh,miR-21 FLuc,SMILES
-12%,-3,-0.3%,0%,COc1ccc(CC(=O)N2CCOCC2)cc1
-7%,-2,3.8%,-5%,Cc1ccc(NC(=O)Cc2n[nH]c(=S)n2C)cc1
?,.,?,.,Cn1cncc1C#Cc1c(C=O)n(C)c2ccccc12
-4%,.,7.4%,0%,CC1Nc2ccc(C(=O)NC3CCCCC3)cc2NC1=O (stereo not given)
10%,.,2.2%,.,CC/C(=N/N=C(/CC)c1ccc(O)cc1)c1ccc(O)cc1
.,5,.,-5%,CC1(C)Cc2c(sc3c4nnnn4c4nnnn4c23)CO1
1%,.,0.8%,2%,Cn1c(=O)n(C)c2cc(NC(=O)COc3ccccc3)ccc21
1%,.,-1.6%,-5%,Cn1c(COc2ccccc2)nnc1SCC(=O)NC1CCCC1
-7%,2,3.4%,-9%,COc1cccc(C(Nc2ccccn2)c2oc(CO)cc(=O)c2O)c1 (stereo not given)
-2%,.,0.1%,.,Cc1ccc2c(c1)C1C=CCC1C(C(=O)NCCCN1CCOCC1)N2 (stereo not given)
0%,.,-3.1%,1%,O=C(NCCCn1ccnc1)C1CCCN(S(=O)(=O)c2ccc(F)cc2)C1 (stereo not given)
-9%,.,4.2%,-26%,CCOc1ccc(N(CC(=O)Nc2ccc(C)c(Cl)c2)S(C)(=O)=O)cc1
14%,.,?,.,C/C=C/c1ccc(OCC(=O)OCC2=C(C(=O)OCC)C(C)NC(=O)N2)c(OC)c1 (stereo not given)
-12%,0,-2.5%,4%,COc1cc(NC(=O)COC(=O)CNC(=O)c2cc(C)cc(C)c2)c(C)cc1[N+](=O)[O-]
-6%,7,-0.2%,-4%,Cc1cc(C)cc(-n2c(N)c(C(=O)Nc3c(C)n(C)n(-c4ccccc4)c3=O)c3nc4ccccc4nc32)c1

Further entries
Rango release inh,GLA inh pH 4.5,Rango complex inh,miR-21 FLuc,SMILES
-4%,.,5.3%,-8%,COc1ccc(C(=O)NC(=S)N2CCN(c3ccccc3OC)CC2)cc1OC
-2%,.,-0.4%,0%,CCCc1cc(=O)oc2cc(C)cc(OCC(=O)NC3CCN(Cc4ccccc4)CC3)c12
-14%,-1,-5.8%,-14%,COC(=O)c1ccc2nc(C(F)(F)F)[nH]c2c1
-2%,.,4.0%,-2%,CCC(C(=O)NCCc1ccc(OC)c(OC)c1)n1nc(C)n2c(cc3occc32)c1=O (stereo not given)
12%,-26,-4.2%,-5%,Cc1sc2c(c1C)C(=O)/C(=C\Nc1ccccn1)S(=O)(=O)N2C
-8%,0,0.1%,-4%,Cc1cc(C)n2nc(SCCC(=O)NCCc3ccccc3)nc2n1
-10%,-9,-1.2%,0%,Cc1cc(NC(=O)C2CCCCC2)nc2c1c(=O)oc1ccccc12
-10%,.,-0.7%,.,Cc1ccc(NC(=O)COC(=O)CN2C(=O)C3CCCCC3C2=O)cc1C (stereo not given)
10%,1,0.4%,-7%,COc1ccc(NC(=O)CSc2nnc(-c3cccs3)n2C)cc1OC
10%,.,5.1%,8%&5%,NC(=O)c1cc(S(=O)(=O)NCc2cccc(Br)c2)cs1
-5%,2,-3.5%,-2%,Cc1ccccc1NC(=O)C1Cc2ccccc2CN1C(=O)OCc1ccccc1 (stereo not given)
-20%,.,2.9%,-2%,O=C(NC1CCCCC1)C(c1ccccn1)N(C(=O)c1csnn1)c1ccccc1F (stereo not given)
?,-10,?,-4%,Cc1ccc(Cl)cc1NC(=O)c1cc2ccccc2cc1O
3%,.,2.2%,-5%,Cn1c(C(=O)Nc2ccc(Cl)cc2)cc2cc(Cl)ccc21
-4%,-2,1.6%,-2%,CCN(CC)S(=O)(=O)c1cccc(S(=O)(=O)N2CCCCC2)c1
6%,.,5.6%,-26%,CSc1nc(Nc2ccc(Cl)cc2)c(C#N)c(=O)[nH]1
-1%,1,3.0%,1%,COC(=O)COc1ccc(NC(=O)Cn2nc(-c3ccccc3)c3ccccc3c2=O)cc1
-5%,-5,-1.8%,-3%,Cc1ccc(C)c(N(CC(=O)NCc2ccc3c(c2)OCO3)C(=O)CCC(=O)Nc2ccccn2)c1
1%,9,3.1%,18%,c1ccc(-c2nc(-c3cccs3)[nH]c2-c2ccccc2)cc1
3%,6,-3.4%,-7%,C=CCNC(=S)Nc1cccc2ccccc12
1%,.,1.7%,.,Cc1ccnc2nc(C(=O)OC(C)C(=O)NCc3ccccc3)nn12 (stereo not given)
0%,2,1.0%,-1%,CN(C)CCCn1c(=S)[nH]c2ccccc2c1=O
-3%,-1,0.7%,-2%,O=C(CN1CCN(CC(=O)Nc2ccccn2)CC1)Nc1ccccn1
17%,1,9.7%,-53%,O=C(NCCc1ccc(F)cc1)c1cccs1
2%,7,-1.1%,0%,Nc1nc(-c2ccco2)c(-c2ccco2)s1
1%,0,1.9%,-10%,O=C(CN(C(=O)Cn1nnc(-c2cccs2)n1)c1ccc2c(c1)OCCO2)NCC1CCCO1 (stereo not given)
-14%,3,2.7%,-1%,Cc1ccsc1C(C(=O)NC(C)(C)C)N(C(=O)c1csnn1)c1ccccc1 (stereo not given)
1%,.,-2.6%,.,O=C(O)c1cccc2c1-c1ccc(Cl)cc1C2=O
21%,4,0.4%,1%,O=C(O)c1ccc2nnn(O)c2c1
18%,-8,1.3%,-27%,O=c1[nH]n2c(=O)c3c([nH]c2c1N=Nc1ccccc1)CCC3
-9%,7,0.1%,1%,CC(C)(C)c1ccc(S(=O)(=O)C(C)(C)C)cc1
-10%,.,-2.6%,28%,CCOC(=O)N1CCC(NC(=O)c2ccc3c(c2)N=C(CC)c2cc(C)ccc2S3)CC1
-2%,.,0.8%,.,CCN(C(=O)C(C)Sc1ccc(S(=O)(=O)N2CCN(C)CC2)cn1)c1ccccc1 (stereo not given)
